Screens: PubChem, National Center for Advancing Translational Sciences (NCATS)
TRPML1 inh: qHTS for Inhibitors of the Human Mucolipin Transient Receptor Potential 1 (TRPML1); Mucolipin-1 (Homo sapiens), Q9GZU1; TRPML1-inducible cells, Ca2+ dye fluorescence, FDSS; hits give low values; inhibition of EC80 agonist-evoked calcium signal; activity change, negative = inhibition, % (test concentration not listed); hit rate 0.02% among 390,000; in the data active means activity change below about -50%; inconclusive means about -30% to -50%; inactive means above about -30%;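 note: stimulus is agonist 54-4 at its EC80 concentration; % is set by controls: 0 for no effect and ±100 for the full control effect; compound concentration not given in the record; the text of the record puts the active cut at -80%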
Target sequence (Q9GZU1 whole entry, looked up): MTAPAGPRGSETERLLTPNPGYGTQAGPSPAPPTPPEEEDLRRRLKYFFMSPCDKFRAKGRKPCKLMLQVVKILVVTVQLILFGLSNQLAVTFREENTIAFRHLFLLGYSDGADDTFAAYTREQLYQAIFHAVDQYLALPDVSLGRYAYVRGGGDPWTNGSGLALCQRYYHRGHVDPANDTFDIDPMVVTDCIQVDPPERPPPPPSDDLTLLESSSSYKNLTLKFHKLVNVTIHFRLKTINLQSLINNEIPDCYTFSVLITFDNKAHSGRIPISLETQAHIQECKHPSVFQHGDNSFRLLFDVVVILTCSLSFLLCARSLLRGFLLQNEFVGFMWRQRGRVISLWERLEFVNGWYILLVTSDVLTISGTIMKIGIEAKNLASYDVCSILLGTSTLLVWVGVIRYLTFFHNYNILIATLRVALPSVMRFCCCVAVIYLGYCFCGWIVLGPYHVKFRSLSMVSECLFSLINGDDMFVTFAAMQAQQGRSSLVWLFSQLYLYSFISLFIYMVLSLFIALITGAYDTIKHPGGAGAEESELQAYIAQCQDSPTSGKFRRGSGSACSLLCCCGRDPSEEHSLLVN
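Tet-induced TRPML1-DL cells loaded with Ca8 no-wash calcium dye were read kinetically on FDSS. Compound addition was followed by EC80 agonist 54-4 (4 uM final); inhibition was read over 110 s.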
Menin MLL FP FL: qHTS Assay for Inhibitors Targeting the Menin-MLL Interaction in MLL Related Leukemias: Competition With Fluorescein Labeled MLL-derived Peptide; 290,000 tested, under 10 active; Fluorescence polarization, fluorescein-MLL peptide displacement from menin; AID 1766, 2009; FP activity change, % at 61.4 µM; inconclusive = falling polarisation curve, or a change in total fluorescence; inactive = total fluorescence flat and polarisation flat or rising; no compound was filed as active; the % refers to the polarisation; negative = inhibition;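 note: % of control where 0% means no effect; inhibitors lower the polarisation; unlabelled MLL peptide was the positive control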
Sfp inh: qHTS Assay for Inhibitors of Bacillus subtilis Sfp phosphopantetheinyl transferase (PPTase); Biochemical Sfp PPTase activity, qHTS; hit rate 3.5% among 310,000; Potency, µM, without a hit: max response, negative = inhibition, actives largely listed as inhibitors; 4'-phosphopantetheinyl transferase ffp (Bacillus subtilis), Q9F4F7; active = well fitted inhibition curve with a large enough effect; inconclusive = small, poorly fitted or top-dose-only effect, or another doubt; inactive = no such curve, though single readings can be large or run the other way;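 note: the enzyme is Sfp with the accession as filed and its product quenches rhodamine fluorescence; potency is the fitted concentration of half-maximal effect; 0% = enzyme reaction without inhibitor and -100% = no enzyme wells; top concentration of the series not given in the record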
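Sfp 15 nM + cpd, 15 min RT; start w/ rhodamine-CoA 5 uM, BHQ-2-YbbR 12.5 uM (final); 50 mM Hepes pH 7.6, 10 mM MgCl2, 0.01% NP-40, 0.01% BSA; read 525/598 nm at 0 and 30 min.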
TRPV1 PAM: HTS Assay for Compounds that Act as Potentiators of the Vanilloid Receptor 1; TRPV1-expressing cells, Fluo-8 calcium influx, capsaicin EC20 potentiation; host cell line not named in the record; control for the full effect not named in the record; hit rate 0.02% among 320,000; potentiation, % at 8.33 µM; AID 540277, 2011; active means potentiation above 80%; inconclusive means 30% to 80%; inactive means below 30%; note: 0% is about no effect
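Fluo-8 calcium influx in TRPV1-expressing cells, kinetic read (ex 480/em 520 nm). Compound added and read 3 min for agonist activity, followed by capsaicin at EC20 final and 2 min further read for enhancement.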
ClpP mod: qHTS Assay for Activators of ClpP; hit rate 1.9% among 340,000; ATP-dependent Clp protease proteolytic subunit (Bacillus subtilis (strain 168)), P80244; purified B. subtilis ClpP, FRET peptide cleavage, 20 min; Potency, µM (series often up to 57.5 µM), inactives show top-dose activity change, negative = active; active = well fitted falling curve with a large enough effect; inconclusive = small, poorly fitted or top-dose-only effect; inactive = no such curve, though single readings can be large or run the other way; note: potency is the fitted concentration of half-maximal effect; the source files actives as falling curves though it sought activators and does not explain the sign; nearly all actives have a fitted effect of over 65% in size; many hits overshoot -100%
Target sequence (P80244 whole entry, looked up): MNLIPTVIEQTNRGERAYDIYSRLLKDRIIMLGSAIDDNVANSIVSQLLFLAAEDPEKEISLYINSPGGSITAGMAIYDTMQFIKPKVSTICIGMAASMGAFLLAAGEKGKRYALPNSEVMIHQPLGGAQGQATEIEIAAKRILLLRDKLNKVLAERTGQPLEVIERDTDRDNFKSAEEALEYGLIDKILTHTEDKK
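Buffer: 100 mM Tris/HCl pH8, 100 mM KCl, 0.05% low protease BSA, 2.5% glycerol, 0.01% Tween-20. ClpP 10 microg/mL final; 20 min RT; delta FRET normalized to ADEP and DMSO controls.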
PINK1 modulator: A Quantitative High throughput Screen to Identify Chemical Modulators of PINK1 Expression; Potency, µM (series often up to 76.6 µM), without a hit: top-dose activation (PINK1 increase), hits mostly activators; hit rate 0.2% among 410,000; AID 624263, 2012; PINK1 immunofluorescence, high-content cytometry, 24 h; active = well fitted activation curve with a large enough effect; inconclusive = small, poorly fitted or top-dose-only effect; inactive = flat fitted curve, though single readings scatter; cell line not stated here;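 note: potency is the fitted concentration of half-maximal effect; % of control where 0% means no effect; nearly all actives have a fitted effect of over 65% in size; a mitochondrial uncoupler was the plate control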
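Stable cell line treated 24 h with compounds at 5 concentrations (CCCP controls), then fixed and immunostained for PINK1 plus nuclear and cell stains; PINK1 immunofluorescence quantified by laser-scanning microplate cytometry.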
TRPML1 agonist: qHTS for Agonists of the Human Mucolipin Transient Receptor Potential 1 (TRPML1). activation, % (concentration not given with the values). AID 624414, 2012. Mucolipin-1 (Homo sapiens), Q9GZU1. hit rate 0.12% among 410,000. TRPML1-expressing cells, Ca2+ dye fluorescence, FDSS; host cell line not named in the record; reference of the full effect not given here; in the data active = activation above about 50%; inconclusive = about 30% to 50%; inactive = below about 30%; note: 0% is about no effect; the text of the record puts the active cut at 80%
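Agonist activity was taken from a 110 s kinetic Ca2+ dye read on the FDSS after pinning compounds onto TRPML1-DL cells. The cells were seeded at 1,500/well with Tet inducer, incubated about 16 h, then dye-loaded at room temperature.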
An asterisk follows results filed as active; ? = inconclusive; / = no result given; & = joins results of further samples; [ ] = remark or other dose. Not a hit list. About 4.4% of those tested had a hit in this group.

SMILES	TRPML1 inh	Menin MLL FP FL	Sfp inh	TRPV1 PAM	ClpP mod	PINK1 modulator	TRPML1 agonist
CC(C)(C)N(Cc1ccccc1)C(=O)COC(=O)CNC(=O)c1ccco1	14	/	/	4	0.3%	-0.5%	-0.4
O=C1CC(c2ccccc2)CN1Cc1ccccc1 (centres undefined)	-9	4.3	25%	-30	-0.5%	20%[38.3 µM]	0.3
COCCN(C(=O)C(C)C)c1nnc(-c2ccc(C(C)(C)C)cc2)s1	11	-1.6	-10%	-13	-1.9%	7.3%	-1.1
Cc1ccc(-c2nc(CS(=O)(=O)CC(=O)NC3CC3)c(C)o2)cc1	-8	/	16%	-5	-12%	0.0%	3.2
CC(=O)N1CCN(C(=O)c2ccc(S(=O)(=O)Nc3ccccc3C)cc2)CC1	6	/	/	12	/	0.4%	0.6
COc1ccc(CC(=O)Nc2cc(Cl)ccc2O)cc1	-5	0.7	5%	13	1.2%	-3.6%[38.3 µM]	0.3
CCc1ccc(-n2c(C)nc3cc(C(=O)NCc4cccnc4)ccc32)cc1	-9	1.2	-5%	-15	/	3.9%	-0.1
Cc1ccc(S(=O)(=O)NCc2ccc(C(=O)N(C)CCC#N)cc2)cc1	23	0.1	15%	5	-0.3%	-1.3%	0.5
O=C(NCCc1ccc(Cl)cc1Cl)c1ccc2nc[nH]c2c1	-14	/	15%	6	1.0%	1.0%	1.7
Cc1cc(-c2ccc(S(=O)(=O)Nc3cc(Cl)ccc3C)s2)on1	0	/	/	/	0.9%	8.9%	0.5
COc1ccccc1-n1c(C)nnc1SCC(=O)Nc1cccc(C(C)=O)c1	9	0.3	11%	9	-0.2%	-0.9%[38.3 µM]	-0.6
CC(=O)Nc1ccc(OC(=O)c2ccc(Br)c([N+](=O)[O-])c2)cc1	-12	-0.3	-21%	8	/	1.7%	1.1
COc1ccc2[nH]c3c(c2c1)CCN1C(=O)C(CC(=O)NC(C)(C)C)C[C@H](C(=O)N2CCCCC2)[C@@]31CCc1ccccc1 (some centres undefined)	-3	/	/	/	1.9%	3.0%	-1.0
O=C(c1cccc(Cl)c1)N1CCN(Cc2ccccc2)CC1	17	0.2	21%	-11	-0.1%	-0.5%	-0.7
O=C(Nc1cccc(NC(=O)c2cccs2)c1)c1ccc2c(c1)OCO2	4	-2.8	6%	-13	/	0.2%	0.0
Cc1ccc2nc(NC(=O)C3CCN(S(=O)(=O)c4ccc5c(c4)oc(=O)n5C)CC3)sc2c1	1	2.9	-15%	-1	-3.2%	0.9%	-0.2
COc1ccc(Nc2nc3ccc(C)cc3n3cnnc23)cc1Cl	/	7.9	-4%	-18	/	/	/
O=C(CS(=O)(=O)c1ccc(F)cc1)NCCS(=O)(=O)c1ccccc1	-21	6.4	18%	6	0.9%	0.0%	0.7
O=C(NCc1cccc(Cl)c1)c1cnccn1	-9	-20	-3%	-6	-2.2%	16%[38.3 µM]	-0.2
Cc1cc(C)c2nc(N(Cc3cccnc3)C(=O)Cc3ccccc3)sc2c1	-12	/	/	/	-1.3%	0.7%	2.6
CCn1ccnc1CN(C)Cc1cn[nH]c1-c1ccc(F)cc1F	-9	-2.8	-9%	4	/	-3.5%	-0.4
CC(=O)N1N=C(c2cccc([N+](=O)[O-])c2)OC1c1ccccc1Cl (centres undefined)	8	1.5	2%	-8	-1.3%	-0.9%	0.8
CN1C[C@@H]2C(c3ccc(Cl)nc3)C3(c4ccccc4)CC2(C3)[C@H]1c1ccccc1 (some centres undefined)	-9	-2.2&1.4	3%&-26%	-7	-0.2%	6.6%	3.6
Cc1nc2cc(OCc3cc(C(=O)NC(C)c4cnn(C)c4)no3)ccc2s1 (centres undefined)	7	/	-6%	8	-22%	0.5%	-0.5
Cc1ccc(C)c(CN2C(=O)c3ccccc3S(=O)(=O)c3ccc(C(=O)N4CCN(c5ccccn5)CC4)cc32)c1	10	/	/	/	-5.5%	-0.2%	1.9
COCCN1C[C@@H](CO)O[C@@H](n2cnc3c(NCCO)ncnc32)C1	/	/	/	/	1.7%	1.2%	-0.1
O=C(OCc1nnc(-c2ccccc2)o1)C1=COCCO1	7	-1.6	26%	-8	-5.8%	-0.7%	2.3
COc1cc(OC)c2c(-c3cccc(-c4ccc(F)c(Cl)c4)c3)cc(=O)oc2c1	-7	/	/	/	?	3.0%	0.6
Cc1cccc(C(=O)Nc2ccc(O)cc2C(=O)O)c1	0	2.1	-6%	-17	/	1.8%	0.0
O=C(N1CCOCC1)N1CCN(S(=O)(=O)c2ccccc2)C1	17	0.1	12%	-10	-3.8%	-0.3%	0.5
O=C(Nc1ccc2c(c1)OCO2)c1ccc2sc([C@@H]3O[C@H](CO)[C@H](O)[C@H](O)[C@H]3O)nc2c1	/	/	/	/	-1.6%	-0.3%	-0.5
CCc1ccc2[nH]c(=O)c(-c3ccccc3)c(O)c2c1	-6	2.5	5%	1	/	-0.1%	-0.9
CC1CCCN(S(=O)(=O)c2ccc(N3CCCCS3(=O)=O)cc2)C1 (centres undefined)	3	/	/	/	-0.2%	-0.4%	-0.7
CCc1nnc(SCC(=O)N2CCc3ccccc32)n1CC	0	/	7%	0	0.0%	-0.1%	0.1
CCc1nc2oc3ccccc3c(=O)c2cc1C(=O)OC	22	-2.0	12%	6	-0.1%	0.7%	0.4
OCCNCc1ccc(-c2ccccc2)cc1	12	2.2	19%	-4	?	2.9%	0.2
O=C(Nc1cccnc1)c1cc(-c2ccc(F)cc2)on1	11	-0.2	14%	-9	0.0%	1.6%	-0.5
Cc1cccc(NC(=O)C(Cc2ccccc2)NS(=O)(=O)c2ccc3c(c2)c(=O)n(C)c(=O)n3C)c1 (centres undefined)	-10	/	/	/	-1.3%	2.5%	-0.9
CC12C(=O)N(c3ccc(C(=O)N4CCOCC4)cc3)C(=O)C1C1c3ccccc3C2c2ccccc21 (centres undefined)	/	10	5%	-6	/	/	/
O=C1C2C(c3ccccc3)(C(=O)N1c1ccc(Cl)cc1)C2(c1ccccc1)c1ccccc1 (centres undefined)	-10	-0.6	11%	13	2.2%	1.1%	2.4
CCC(=O)N1CCc2cc(S(=O)(=O)NC(C(=O)NC3CCCc4ccccc43)C(C)C)ccc21 (centres undefined)	-10	3.7	-6%	-6	-3.4%	-1.6%	-0.2
O=C(CC(c1ccccc1)c1ccccc1)Nc1ccc2c(c1)OCCO2	-8	4.3	-1%	-13	2.3%	-0.3%	1.0
COc1cc(Cl)c(CN2CCCC(CO)(Cc3ccccc3)C2)cc1OC (centres undefined)	-5	12	9%	5	/	5.0%	0.4
COc1cc(N2C(=O)C=CC2=O)ccc1N1C(=O)C=CC1=O	9	/	/	/	-0.6%	-6.4%	0.3
CC(C)(C)S(=O)N1Cc2cn(Cc3ccccc3)c(=O)cc2[C@@H]1CCO (some centres undefined)	7	/	/	/	?	-0.4%	-0.6
C/C(CC(=O)Nc1ccc(N(C)C)cc1)=N\NC(=O)c1ccccc1Cl	-3	/	/	/	-1.2%	0.7%	-0.5
Cc1c(Cl)cccc1NC(=O)CCN1CCCCCC1	-13	-1.2	15%	-2	1.1%	-1.1%	0.0
COc1ccccc1NC(=O)COn1nnc2ccc(S(=O)(=O)N3CCOCC3)cc21	13	2.7	20%	13	/	-0.2%	1.3
Cc1nn(-c2ccccc2)c(C)c1/C=N/NC(=O)c1cc(-c2ccccc2)n[nH]1	13	1.0	?	9	1.5%	-1.4%	2.3
CCC(C)(C)n1nnnc1C(c1ccc2ncccc2c1)N1CCCCCC1 (centres undefined)	26	1.0	-10%	-39	0.0%	-1.0%	1.0
O=C(NC(=S)Nc1ccccc1N1CCOCC1)c1cccc([N+](=O)[O-])c1	-9	/	11%	-11	-0.7%	-0.2%	0.0
O=C(Cn1cnc([N+](=O)[O-])c1)c1ccc(Cl)cc1	-8	/	/	20	0.0%	1.1%	-0.5
Cc1c2cnn(CC(=O)NCCN3CCOCC3)c(=O)c2c(C)n1Cc1ccccc1	11	-4.5	3%	-17	-11%	0.4%	-0.5
O=C(Nc1c(O)c2ccccc2oc1=O)c1ccccc1Cl	6	/	/	/	-1.3%	0.7%	-0.6
O=C(Oc1ccc(F)cc1)c1nc(SCc2ccccc2F)ncc1Cl	-11	/	/	/	-1.8%	-0.4%	0.2
CCC1CN(C(=O)N2CCC(C(=O)NCc3ccccc3C)CC2)c2ccccc2O1 (centres undefined)	?	/	13%	14	1.8%&-0.1%	3.3%&0.7%	-0.9&1.3
COC(=O)c1cc(C)sc1NC(=O)C1CC=CCC1C(=O)O (centres undefined)	-3	-0.1	17%	6	-12%	?	0.8
C(=C\c1ccccc1)/CN1CCN(C(c2nnnn2C2CCCC2)C2CC2)CC1 (centres undefined)	-16	/	/	/	1.6%	0.2%	0.0
COc1cccc(C2CC(=O)Nc3c2c(=O)n(C)c2ncnn32)c1OC (centres undefined)	-1	/	/	/	-4.0%	-0.7%	0.2
COc1cc(/C=N/NC(=S)NC2CC3CCC2C3)ccc1O (centres undefined)	-5	2.8	4%	24	-13%	3.2%	7.0

Filtered by structure, those above with two or more sulfur atoms
SMILES	TRPML1 inh	Menin MLL FP FL	Sfp inh	TRPV1 PAM	ClpP mod	PINK1 modulator	TRPML1 agonist
Cc1cc(-c2ccc(S(=O)(=O)Nc3cc(Cl)ccc3C)s2)on1	0	/	/	/	0.9%	8.9%	0.5
Cc1ccc2nc(NC(=O)C3CCN(S(=O)(=O)c4ccc5c(c4)oc(=O)n5C)CC3)sc2c1	1	2.9	-15%	-1	-3.2%	0.9%	-0.2
O=C(CS(=O)(=O)c1ccc(F)cc1)NCCS(=O)(=O)c1ccccc1	-21	6.4	18%	6	0.9%	0.0%	0.7
CC1CCCN(S(=O)(=O)c2ccc(N3CCCCS3(=O)=O)cc2)C1 (centres undefined)	3	/	/	/	-0.2%	-0.4%	-0.7
